Screening data (PubChem)
Sa RN4220 lethal – growth inhibition of S. aureus RN4220, primary screen, OD600 | 16 h | inhibition, % (no concentration beside the values) | 330,000 tested, 0.33% active | AID 1259311, 2017;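 active means z-score of -3 or lower and OD600 up to 0.18 on both plates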;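 further: plate controls were untreated cells for no effect and reference antibiotic for full effect; stock transfer was 100 nL into about 80 µL; one replicate is shown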
Bead autofluor – counter-screen for toxin protease inhibitors: compound fluorescence | compound autofluorescence counterscreen, microsphere flow cytometry; stronger effect = higher value | AID 624483 | 360,000 tested, 3.1% active | fluorescence intensity (concentration not given with the values);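 active means at least 3 SD above the mean of all compounds, about 16000 in these data; inconclusive means too few beads counted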;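 further: 100 nL of 1 mM stock went into each well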
BJeLR viability – MLPCN primary cell-based screen for lethality selective to Ras in HRASV12 cells | BJeLR (HRASV12) viability, CellTiter-Glo ATP luminescence, 48 h; reference of the scale not given here | 300,000 tested, 0.17% active | inhibition, % (no concentration beside the values);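 active means replicate mean above 50%; inconclusive means above 50% but judged a plate artefact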;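 further: 50 nL library stock added to about 25 µL; numbers are from one replicate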
PrP 5UTR inh – inhibition of PrP 5' UTR reporter expression; cell-based PrP 5' UTR mRNA reporter, plate reader; inhibition, % (concentration not given with the values); 340,000 tested, 0.35% active;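 active means every replicate at 50% or more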;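 further: 0 = median of the neutral control wells; tested in H4 reporter cells; numbers are from one replicate; inactives centre near -14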
Mtb hypoxia rep – PubChem AID 1159583 | fluorescence inhibition, % (concentration not given with the values) | 300,000 tested, 0.1% active | M. tuberculosis hypoxia-regulated fluorescent reporter, fluorescence;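 active means 35 to 45% if threefold the growth effect, above 45% if 1.5-fold the growth effect; inactive means the rest, general growth blockers included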;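 further: wells of about 50 µL received 100 nL stock; 0% = vehicle wells and 100% = reference inhibitor wells; whole bacteria with a GFP reporter of the hypoxia response; strong numbers were not always called active; many hits fall short of the cut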
ugtP null kill – growth inhibition of ugtP-null S. aureus, primary screen, RN4220 ugtP deletion, OD600; 330,000 tested, 0.54% active; growth inhibition, % (test concentration not listed); 16 h; some inactives read as strong as hits;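 active means z-score under -3 and OD600 up to 0.15 on both plates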;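 further: plate controls were untreated wells for no effect and antibiotic for full effect; wells of about 80 µL received 100 nL stock; the first replicate is given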
Mtb hypoxia rep growth – recorded beside Mtb hypoxia rep, whose call it bears; growth inhibition, %; measured here: M. tuberculosis growth (absorbance);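 0% = vehicle and 100% = reference antibiotic; read after six days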
* marks the source's active call; other numbers are inactive results.

Results for COc1ccc(NC(=O)CCC(=O)Nc2nnc(C(F)(F)F)s2)c(OC)c1 ?
Sa RN4220 lethal: 5.0; Bead autofluor: 18599*; BJeLR viability: -6; PrP 5UTR inh: -51; Mtb hypoxia rep: 0; ugtP null kill: 5; Mtb hypoxia rep growth: 4

What do the screens show for `CCCC(=O)Nc1nnc(SCC(=O)N2C(C)CCCC2C)s1` (stereo not drawn)?
Sa RN4220 lethal: 2.5; Bead autofluor: 3630; BJeLR viability: 7; PrP 5UTR inh: -20; Mtb hypoxia rep: -4; ugtP null kill: 24; Mtb hypoxia rep growth: 1

How did Cc1ccc(Nc2nc(NCCO)nc3c2cnn3C)cc1Cl do in these assays?
Sa RN4220 lethal: 3.6; Bead autofluor: 2748; BJeLR viability: 6; PrP 5UTR inh: -3; Mtb hypoxia rep: 9; ugtP null kill: -19; Mtb hypoxia rep growth: 4

How did Clc1ccc(C(Cc2nc3ccccc3[nH]2)=NNc2ccccc2)cc1 do in these assays?
Sa RN4220 lethal: -12; Mtb hypoxia rep: 10; ugtP null kill: -15; Mtb hypoxia rep growth: 5

How did CC(C)C1CC(CCN)(Cc2ccccc2)CCO1 (stereo not drawn) do in these assays?
Sa RN4220 lethal: -1.3; Bead autofluor: 3651; BJeLR viability: -4; PrP 5UTR inh: -6; Mtb hypoxia rep: -4; ugtP null kill: -2; Mtb hypoxia rep growth: 4

Results for N/C(Cc1cccs1)=N\OC(=O)COc1ccc(Br)cc1Cl ?
Sa RN4220 lethal: 10; Bead autofluor: 2789; BJeLR viability: 5; PrP 5UTR inh: -38; ugtP null kill: 31

What do the screens show for `O=c1oc2ccccc2n1Cc1ccccc1Cl`?
Sa RN4220 lethal: 2.2; Bead autofluor: 5872; BJeLR viability: 0; PrP 5UTR inh: -15; Mtb hypoxia rep: 9; ugtP null kill: 6; Mtb hypoxia rep growth: 3

What do the screens show for `O=C(CCS(=O)CCC(=O)NCc1ccccc1)NCc1ccccc1`?
Sa RN4220 lethal: -3.6; Bead autofluor: 3726; BJeLR viability: 12; PrP 5UTR inh: -18; ugtP null kill: 4

Results for CC1(C)CN=C(N(C(=O)Nc2ccccc2)c2ccccc2F)S1 ?
Sa RN4220 lethal: -1.0; Bead autofluor: 6271; BJeLR viability: 8; PrP 5UTR inh: -1; Mtb hypoxia rep: 14; ugtP null kill: 23; Mtb hypoxia rep growth: 6

Results for O=C(CSc1nnnn1C1CCCCC1)N1CCOCC1 ?
Sa RN4220 lethal: 2.4; Bead autofluor: 2481; BJeLR viability: -5; PrP 5UTR inh: -5; Mtb hypoxia rep: 7; ugtP null kill: 8; Mtb hypoxia rep growth: 1

How did Cc1cc(C)n(C(=O)c2cccc(S(=O)(=O)N3CCCC3)c2)n1 do in these assays?
Sa RN4220 lethal: 0.0; Bead autofluor: 11134; BJeLR viability: -2; PrP 5UTR inh: -5; Mtb hypoxia rep: 6; ugtP null kill: 3; Mtb hypoxia rep growth: 9

What do the screens show for `Cc1cc(NC(=O)C2CCCC2)n(-c2nc3ccccc3[nH]2)n1`?
Sa RN4220 lethal: -0.5; Bead autofluor: 15466; BJeLR viability: -4; PrP 5UTR inh: 5; Mtb hypoxia rep: -3; ugtP null kill: -27; Mtb hypoxia rep growth: -12

Results for COC(=O)c1ccsc1NC(=O)CS(=O)(=O)c1ccccc1 ?
Sa RN4220 lethal: 2.5; BJeLR viability: -19; PrP 5UTR inh: -13; Mtb hypoxia rep: 6; ugtP null kill: 12; Mtb hypoxia rep growth: 0

Results for COc1ccc(S(=O)(=O)NCC(c2ccco2)N2CCc3ccccc32)cc1 (stereo not drawn) ?
Sa RN4220 lethal: 2.0; Bead autofluor: inconclusive; BJeLR viability: 12; PrP 5UTR inh: -28; Mtb hypoxia rep: 7; ugtP null kill: 5; Mtb hypoxia rep growth: 4

Results for CC(=O)N(C)c1ccc(N=Nc2c(C)[nH]n(-c3ccccc3)c2=O)cc1 ?
Sa RN4220 lethal: 1.0; Bead autofluor: 3605; BJeLR viability: 3; PrP 5UTR inh: -9; Mtb hypoxia rep: 13; ugtP null kill: 1; Mtb hypoxia rep growth: 1

Results for COc1cc(C(=O)OC(C)C(=O)N2CCCC2)cc2c1OCCO2 (stereo not drawn) ?
Sa RN4220 lethal: -2.2; Bead autofluor: 3213; PrP 5UTR inh: -16; Mtb hypoxia rep: -3; ugtP null kill: -5; Mtb hypoxia rep growth: -12

What do the screens show for `CCc1ccc(NC(=O)C2CCN(C(=O)[C@@H]3Cc4ccccc4CN3)CC2)cc1`?
Sa RN4220 lethal: -4.1; Bead autofluor: 6643; BJeLR viability: -2; PrP 5UTR inh: -15; Mtb hypoxia rep: -2; ugtP null kill: -6; Mtb hypoxia rep growth: 10

What do the screens show for `CCN(CC)CCNC(C(=O)Nc1ccc([N+](=O)[O-])cc1Br)c1ccccc1` (stereo not drawn)?
Sa RN4220 lethal: 1.2; Bead autofluor: 9945; BJeLR viability: 8; PrP 5UTR inh: -17; Mtb hypoxia rep: 11; ugtP null kill: 4; Mtb hypoxia rep growth: 18

What do the screens show for `O=Cc1cccc(OCc2cccc3ccccc23)c1`?
Sa RN4220 lethal: -5.9; Bead autofluor: 4171; BJeLR viability: 5; PrP 5UTR inh: -40; Mtb hypoxia rep: 19; ugtP null kill: 65; Mtb hypoxia rep growth: 2

Results for Cc1cccc2c(=O)c(C(=O)NCc3ccc(F)cc3)c[nH]c12 ?
Sa RN4220 lethal: 3.1; Bead autofluor: 4140; BJeLR viability: -7; PrP 5UTR inh: -15; Mtb hypoxia rep: 12; ugtP null kill: 10; Mtb hypoxia rep growth: -5

Three entries from above, arranged by SMILES length, lowest first:
What do the screens show for `O=Cc1cccc(OCc2cccc3ccccc23)c1`?
Sa RN4220 lethal: -5.9; Bead autofluor: 4171; BJeLR viability: 5; PrP 5UTR inh: -40; Mtb hypoxia rep: 19; ugtP null kill: 65; Mtb hypoxia rep growth: 2

How did Cc1ccc(Nc2nc(NCCO)nc3c2cnn3C)cc1Cl do in these assays?
Sa RN4220 lethal: 3.6; Bead autofluor: 2748; BJeLR viability: 6; PrP 5UTR inh: -3; Mtb hypoxia rep: 9; ugtP null kill: -19; Mtb hypoxia rep growth: 4

How did Clc1ccc(C(Cc2nc3ccccc3[nH]2)=NNc2ccccc2)cc1 do in these assays?
Sa RN4220 lethal: -12; Mtb hypoxia rep: 10; ugtP null kill: -15; Mtb hypoxia rep growth: 5

(list continues)
How did Cc1cccc(N(CC(=O)N2CCCCCC2)S(C)(=O)=O)c1 do in these assays?
Sa RN4220 lethal: 2.5; Bead autofluor: 4144; BJeLR viability: -1; PrP 5UTR inh: -8; Mtb hypoxia rep: -7; ugtP null kill: 3; Mtb hypoxia rep growth: 10

How did CS(=O)(=O)c1ccc(-c2cn3cc(C(=O)O)ccc3n2)cc1 do in these assays?
Sa RN4220 lethal: 3.4; Bead autofluor: 3993; BJeLR viability: 5; PrP 5UTR inh: 5; Mtb hypoxia rep: 9; ugtP null kill: 0; Mtb hypoxia rep growth: 8

How did CCN(CC(=O)Nc1ccc(NC(C)=O)cc1)C(=O)c1ccc(COc2ccccc2)o1 do in these assays?
Sa RN4220 lethal: 1.4; Bead autofluor: inconclusive; PrP 5UTR inh: -15; Mtb hypoxia rep: 1; ugtP null kill: 5; Mtb hypoxia rep growth: 11

How did CC(=O)Nc1ccc(S(=O)(=O)NN=Cc2ccc(C)s2)cc1 do in these assays?
Sa RN4220 lethal: 5.7; Mtb hypoxia rep: 2; ugtP null kill: 10; Mtb hypoxia rep growth: 4

How did Cc1cccc(N=Cc2c(O)n(C)c(=O)n(C)c2=O)c1 do in these assays?
Sa RN4220 lethal: 3.1; Bead autofluor: 3292; BJeLR viability: -1; PrP 5UTR inh: -12; Mtb hypoxia rep: 12; ugtP null kill: 4; Mtb hypoxia rep growth: -5

How did O=C(N/N=C/c1ccccc1F)C(=O)N1CCCCCC1 do in these assays?
Bead autofluor: 5260; BJeLR viability: 2; PrP 5UTR inh: -13

Results for Cc1ccsc1C(=O)NNC(=O)c1ccccc1F ?
Sa RN4220 lethal: 3.9; Bead autofluor: 2835; PrP 5UTR inh: -70; Mtb hypoxia rep: -23; ugtP null kill: 1; Mtb hypoxia rep growth: 9

How did COc1ccc(OCC(O)CN2CCN(Cc3ccc4c(c3)OCO4)CC2)cc1 (stereo not drawn) do in these assays?
Sa RN4220 lethal: 2.9; Bead autofluor: 4088; BJeLR viability: -1; PrP 5UTR inh: 1; Mtb hypoxia rep: 6; ugtP null kill: 1; Mtb hypoxia rep growth: 6

How did CC1CCN(C(=S)c2ccc([N+](=O)[O-])cc2)CC1 do in these assays?
Sa RN4220 lethal: 7.9; Bead autofluor: 10793; BJeLR viability: 11; PrP 5UTR inh: -8; Mtb hypoxia rep: 18; ugtP null kill: -9; Mtb hypoxia rep growth: 14

Results for CC(=O)N1CC=C2C(C#N)=C(N)C(C#N)(C#N)[C@H](c3ccoc3)[C@H]2C1 ?
Sa RN4220 lethal: 7.1; Bead autofluor: 23512*; BJeLR viability: 2; PrP 5UTR inh: -16; Mtb hypoxia rep: 1; ugtP null kill: 9; Mtb hypoxia rep growth: 1

How did CCn1c(C)nc2cc(C(N)=O)ccc21 do in these assays?
Sa RN4220 lethal: 0.6; Bead autofluor: 4145; BJeLR viability: -8; PrP 5UTR inh: -14; Mtb hypoxia rep: -1; ugtP null kill: -3; Mtb hypoxia rep growth: 7

How did CC(C)c1ccc(OCC(O)Cn2cnc3ccccc32)cc1 (stereo not drawn) do in these assays?
Sa RN4220 lethal: -9.5; Bead autofluor: 3002; BJeLR viability: 24; PrP 5UTR inh: -13; Mtb hypoxia rep: -2; ugtP null kill: -8; Mtb hypoxia rep growth: 3

What do the screens show for `CCOc1ccc(NC(=O)C2C3CCC4C(CCC32)C4(Cl)Cl)cc1` (stereo not drawn)?
Sa RN4220 lethal: 1.4; Bead autofluor: 2022; BJeLR viability: 19; PrP 5UTR inh: -5; Mtb hypoxia rep: -3; ugtP null kill: 13; Mtb hypoxia rep growth: 9

What do the screens show for `O=C(Cn1c(SCC(=O)N2CCc3ccccc32)nc2ccccc21)NC1CCCC1`?
Sa RN4220 lethal: -3.1; Bead autofluor: 2817; BJeLR viability: 7; PrP 5UTR inh: -8; Mtb hypoxia rep: 2; ugtP null kill: -6; Mtb hypoxia rep growth: 4

What do the screens show for `COC(=O)C1C(=O)/C(=C(/C)N2CCCC2)C(=O)CC1(C)C` (stereo not drawn)?
Sa RN4220 lethal: 3.8; Bead autofluor: 23073*; BJeLR viability: -7; PrP 5UTR inh: -26; Mtb hypoxia rep: 4; ugtP null kill: 5; Mtb hypoxia rep growth: 5

Results for COCCNC(=O)c1ccc(-n2c(SCc3cccnc3)nc3ccccc3c2=O)cc1 ?
Sa RN4220 lethal: 19; Bead autofluor: 3950; BJeLR viability: 5; PrP 5UTR inh: -8; Mtb hypoxia rep: 12; ugtP null kill: 5; Mtb hypoxia rep growth: 14

How did Cc1cc(C=NCCO)c(C)n1-c1cc(Cl)ccc1Cl do in these assays?
Sa RN4220 lethal: 3.6; Bead autofluor: 4188; BJeLR viability: 1; PrP 5UTR inh: 0; Mtb hypoxia rep: -5; ugtP null kill: 2; Mtb hypoxia rep growth: -4

Results for CCOc1ccc(C)cc1S(=O)(=O)n1nc(C)cc1C ?
Sa RN4220 lethal: 4.2; Bead autofluor: 4742; BJeLR viability: -5; PrP 5UTR inh: -16; Mtb hypoxia rep: -1; ugtP null kill: 3; Mtb hypoxia rep growth: 5

How did O=C(NC1CCCCCC1)c1ccccc1-c1ccccc1 do in these assays?
Sa RN4220 lethal: 26; Bead autofluor: 2620; BJeLR viability: -23; PrP 5UTR inh: -6; Mtb hypoxia rep: 2; ugtP null kill: 8; Mtb hypoxia rep growth: -4

Results for O=C(CSc1nnc(-c2ccco2)n1Cc1ccccc1)NC(=O)NCc1ccccc1 ?
Sa RN4220 lethal: 0.2; Bead autofluor: 4106; BJeLR viability: 1; PrP 5UTR inh: -11; ugtP null kill: 8

Results for COc1ccc(Nc2nc3ccccc3n3nnnc23)cc1 ?
Sa RN4220 lethal: 6.1; Bead autofluor: 15000; BJeLR viability: 2; PrP 5UTR inh: 5; Mtb hypoxia rep: -5; ugtP null kill: -9; Mtb hypoxia rep growth: -4
